# Source: PubChem BioAssay
# Vaccinia inh = Vaccinia orthopox stage-specific inhibition; Vaccinia-infected cells, mCherry/Venus stage reporter fluorescence; active compounds read low; some inactives read as strong as hits; activity change (mCherry), % (no concentration beside the values); 89,000 compounds, 0.01% hits; AID 1053133;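 active = mCherry past -33% and 40 or more points under the early reporter, replicates agreeing; inconclusive = past -33% without that gap or agreement; tested in A549 cells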;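 also: scaled between vehicle wells and reference inhibitor wells; 23 nL library stock went into each well; one replicate is shown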
# Vaccinia inh Venus = also measured in Vaccinia inh; calls as there; activity change (Venus), %; measured here: Venus reporter, other viral stage;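 negative = less Venus signal; first of two replicates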
# * = called active by the depositor; ? = inconclusive; . = not tested or not shown. These rows are one share of the data; rates above refer to the full screens.
SMILES,Vaccinia inh,Vaccinia inh Venus
Cc1noc(C)c1NC(=O)Nc1ccc2c(c1)CC(=O)N([C@H](C)CO)C[C@@H](C)[C@H](CN(C)C(=O)Nc1ccc(C(F)(F)F)cc1)O2,15,9
CN1C(=O)c2cc(NS(=O)(=O)c3ccc(F)cc3)ccc2OC[C@@H]2O[C@H](CC(=O)NCC(F)(F)F)CC[C@@H]21,7,9
CCS(=O)(=O)Nc1ccc2c(c1)C(=O)N(C)[C@@H]1CC[C@@H](CC(=O)NC3CCCCC3)O[C@@H]1CO2,6,12
C[C@H]1CN([C@@H](C)CO)S(=O)(=O)c2ccc(C#CC3CCCC3)cc2O[C@H]1CN(C)S(C)(=O)=O,-34,-35
CC(C)C#Cc1ccc([C@@H]2[C@H](CO)N3C(=O)CN(C(=O)C4CCCCC4)C[C@@H]23)cc1,-7,-20
COc1ccccc1NC(=O)N1CCCCN2[C@H](C1)[C@H](c1ccc(-c3ccc(C)cc3)cc1)[C@@H]2CO,?,.
CCC(=O)N1[C@@H](CO)[C@H](c2ccccc2)[C@@H]1CNC(=O)CN1CCOCC1,29,17
C[C@@H]1CCCCO[C@@H](CN(C)C(=O)CCC(F)(F)F)[C@H](C)CN([C@@H](C)CO)C(=O)c2cc(NS(=O)(=O)c3ccccc3)ccc2O1,8,-2
O=C(C[C@H]1C=C[C@H](NC(=O)C2CC2)[C@H](CO)O1)NCC1CC1,3,0
COCC#Cc1cnc2c(c1)C(=O)N([C@@H](C)CO)C[C@@H](C)[C@@H](CN(C)C(=O)Nc1ccc(OC)cc1)O2,21,10
COc1ccccc1NC(=O)Nc1ccc2c(c1)C(=O)N(C)C[C@H](OC)[C@@H](C)CN[C@@H](C)CO2,-4,2
Cc1noc(C)c1NC(=O)N(C)C[C@@H]1Oc2c(NC(=O)Nc3ccc(F)cc3)cccc2C(=O)N([C@@H](C)CO)C[C@@H]1C,11,14
C[C@@H]1CN([C@@H](C)CO)C(=O)c2cccc(NC(=O)c3ccncc3)c2O[C@@H]1CN(C)Cc1ccc(C(F)(F)F)cc1,9,1
C[C@@H]1CCCCO[C@H](CN(C)S(=O)(=O)c2cn(C)cn2)[C@H](C)CN([C@@H](C)CO)C(=O)c2cc(NS(C)(=O)=O)ccc2O1,12,7
Cc1cc(C(=O)Nc2cccc3c2O[C@H](CN(C)C(=O)Nc2cccc4ccccc24)[C@@H](C)CN([C@H](C)CO)C3=O)n(C)n1,14,16
COc1ccc(CNC(=O)C[C@H]2CC[C@H](NC(=O)c3ccc4c(c3)OCO4)[C@H](CO)O2)cc1,-5,-2
C[C@@H]1CN([C@@H](C)CO)C(=O)c2cc(-c3cncnc3)cnc2O[C@H]1CN(C)Cc1ccccc1,10,4
C[C@H]1CN([C@@H](C)CO)S(=O)(=O)c2ccc(-c3ccc(C#N)cc3)cc2O[C@H]1CN(C)C(=O)Nc1cc(F)ccc1F,?,.
C[C@H]1CN([C@@H](C)CO)C(=O)c2ccccc2-c2ccccc2CO[C@H]1CN(C)Cc1ccc(Cl)c(Cl)c1,-24,-13
CC=Cc1ccc2n(c1=O)C[C@@H]1[C@@H](CO)[C@H](C(=O)NCC)[C@H]2N1Cc1nccs1 (mixture of isomers),-1,2
COc1ccc(NC(=O)Nc2cccc3c2O[C@@H](CN(C)Cc2ccccc2)[C@@H](C)CN([C@@H](C)CO)C3=O)cc1,3,3
COc1cccc(NC(=O)N[C@@H]2CC[C@@H](CC(=O)Nc3ccccc3)O[C@@H]2CO)c1,-7,-3
COCC(=O)N1CC2(C1)CN(Cc1ccc3c(c1)OCO3)[C@H](CO)c1c2c2ccc(OC)cc2n1C,-2,-6
O=C(NCC1CC1)[C@H]1[C@H](CO)[C@H]2Cn3c(cccc3=O)[C@@H]1N2C(=O)c1ccc(F)cc1,-2,4
Cc1ccc(S(=O)(=O)N(C)C[C@H]2Oc3ccc(NC(=O)Nc4ccc5c(c4)OCO5)cc3CC(=O)N([C@H](C)CO)C[C@@H]2C)cc1,15,1
COCC(=O)N1[C@H](CO)[C@@H](c2ccccc2)C12CN(C(=O)c1cccnc1)C2,-2,-3
C[C@H]1CN([C@@H](C)CO)C(=O)c2cccc(NS(=O)(=O)c3ccccc3)c2O[C@@H]1CN(C)C,14,3
C[C@@H]1CN([C@@H](C)CO)C(=O)c2cccc(NC(=O)C3CC3)c2O[C@@H]1CN(C)Cc1ccc(-c2ccccc2)cc1,-8,-5
C[C@H](CO)N1C[C@H](C)[C@@H](CN(C)S(=O)(=O)c2cn(C)cn2)Oc2c(NC(=O)c3nc4ccccc4s3)cccc2C1=O,25,15
C[C@@H]1CN([C@H](C)CO)C(=O)c2cc(N(C)C)ccc2O[C@H]1CN(C)S(=O)(=O)c1ccc(F)cc1,6,5

# Molecules listed so far with two or more sulfur atoms:
SMILES,Vaccinia inh,Vaccinia inh Venus
C[C@H]1CN([C@@H](C)CO)S(=O)(=O)c2ccc(C#CC3CCCC3)cc2O[C@H]1CN(C)S(C)(=O)=O,-34,-35
C[C@@H]1CCCCO[C@H](CN(C)S(=O)(=O)c2cn(C)cn2)[C@H](C)CN([C@@H](C)CO)C(=O)c2cc(NS(C)(=O)=O)ccc2O1,12,7
C[C@H](CO)N1C[C@H](C)[C@@H](CN(C)S(=O)(=O)c2cn(C)cn2)Oc2c(NC(=O)c3nc4ccccc4s3)cccc2C1=O,25,15

# Additional compounds
SMILES,Vaccinia inh,Vaccinia inh Venus
CCNC(=O)C[C@@H]1CC[C@H]2[C@@H](COC[C@@H](O)CN2C(=O)Nc2ccc(Cl)c(Cl)c2)O1,18,10
O=C(Cc1ccccn1)N1CC(=O)N2[C@H](CO)[C@H](c3ccc(C#CCC4CCCC4)cc3)[C@@H]2C1,-29,-22
COc1cccc(C(=O)Nc2ccc3c(c2)C(=O)N(C)C[C@H](OC)[C@H](C)CN[C@H](C)CO3)c1,4,14
CCCNC(=O)N1CC(=O)N2[C@H](C1)[C@H](c1ccc(C#Cc3cccc(OC)c3)cc1)[C@@H]2CO,?,.
CCCNC(=O)N[C@H]1C=C[C@@H](CC(=O)NC2CCCCC2)O[C@@H]1CO,-9,-2
COc1cccc(S(=O)(=O)N[C@H]2CC[C@H](CC(=O)NC3CCC3)O[C@H]2CO)c1,12,14
CCC(=O)N1CCC2(CC1)CN(Cc1cc(F)ccc1F)[C@@H](CO)c1[nH]c3cc(OC)ccc3c12,11,11
O=C(C[C@H]1CC[C@@H](NC(=O)c2ccncc2)[C@@H](CO)O1)NCCc1ccncc1,-6,-3
O=C(c1cnccn1)N1CC[C@@H]2[C@H]1c1cc(-c3ccccc3)ccc1N[C@@H]2CO,-2,-2
Cc1noc(C)c1NC(=O)Nc1cccc2c1O[C@@H](CN(C)Cc1ccccc1)[C@H](C)CN([C@@H](C)CO)C2=O,-5,-2
C[C@H]1CN([C@@H](C)CO)C(=O)c2cc(C#CC(C)(C)O)cnc2O[C@H]1CN(C)Cc1cncnc1,5,5
C[C@H](CO)N1C[C@H](C)[C@H](CN(C)Cc2ccc(O)cc2)OCc2cn(nn2)CCCC1=O,10,10
C[C@@H]1CN([C@@H](C)CO)C(=O)c2cc(C#CCN(C)C)cnc2O[C@H]1CN(C)C(=O)c1cccc(F)c1,27,12
CCC(=O)N(C)C[C@H]1Oc2cc(-c3cccc(OC)c3)ccc2S(=O)(=O)N([C@H](C)CO)C[C@H]1C,1,-13
CC(C)C#Cc1ccc2c(c1)O[C@@H](CN(C)C(=O)Cc1ccccn1)[C@H](C)CN([C@H](C)CO)S2(=O)=O,-5,-8
O=C(C[C@H]1CC[C@@H]2[C@H](COC[C@H](O)CN2Cc2ccccc2)O1)NCCCN1CCOCC1,-3,-5
C[C@H](CO)N1C[C@H](C)[C@H](CN(C)Cc2ccccc2)Oc2ccc(NC(=O)C3CCCCC3)cc2CC1=O,8,-3
C[C@H](CO)N1C[C@H](C)[C@H](CN(C)S(C)(=O)=O)Oc2c(NC(=O)C3CC3)cccc2C1=O,4,0
COc1ccc(C#Cc2ccc([C@@H]3[C@@H](CO)N4C(=O)CN(C(=O)NC(C)C)C[C@H]34)cc2)cc1,-27,-15
C[C@H]1CN([C@@H](C)CO)C(=O)Cc2cc(NC(=O)C3CCCCC3)ccc2O[C@@H]1CN(C)C(=O)Nc1ccc2c(c1)OCO2,7,4
COCC#Cc1ccc2c(c1)O[C@@H](CN(C)Cc1cncnc1)[C@H](C)CN([C@@H](C)CO)S2(=O)=O,15,11
CN(C)C(=O)c1ccc(-c2ccc(C3[C@H]4CNC[C@@H]3N4S(=O)(=O)c3ccc(Cl)cc3)cc2)cc1 (stereo not given in full),2,5
O=C(NCCN1CCCCC1)[C@H]1[C@H](CO)[C@H]2Cn3c(cccc3=O)[C@@H]1N2C(=O)C1CC1,-7,2
CN1CCN(C(=O)C[C@H]2CC[C@@H]3[C@H](COC[C@@H](O)CN3CC3CCOCC3)O2)CC1,4,13
CC(=O)N[C@@H]1C=C[C@H](CC(=O)NCC2CCCCC2)O[C@H]1CO,5,0
O=C(c1cccnc1)N1CC2(C1)[C@H](c1ccccc1)[C@H](CO)N2C(=O)c1cccnc1,3,9
N#Cc1ccc(-c2ccc(C3[C@@H]4CN(C(=O)c5cccnc5)C[C@H]3N4)cc2)cc1 (stereo not given in full),?,4
C[C@H]1CN([C@@H](C)CO)C(=O)c2cccc(NC(=O)C3CC3)c2O[C@H]1CN(C)Cc1ccncc1,16,17
C[C@@H]1CN([C@H](C)CO)C(=O)c2cc(NS(=O)(=O)c3ccc(Cl)cc3)ccc2O[C@@H](C)CCCCO[C@H]1CN(C)S(=O)(=O)c1ccccc1,-11,-4
C[C@@H]1CN([C@H](C)CO)C(=O)Cc2cc(NS(=O)(=O)c3ccc(F)cc3)ccc2O[C@H]1CN(C)C,12,18

# 11 compounds from above, sorted by SMILES length, rising:
SMILES,Vaccinia inh,Vaccinia inh Venus
CC(=O)N[C@@H]1C=C[C@H](CC(=O)NCC2CCCCC2)O[C@H]1CO,5,0
N#Cc1ccc(-c2ccc(C3[C@@H]4CN(C(=O)c5cccnc5)C[C@H]3N4)cc2)cc1 (stereo not given in full),?,4
O=C(c1cccnc1)N1CC2(C1)[C@H](c1ccccc1)[C@H](CO)N2C(=O)c1cccnc1,3,9
CN1CCN(C(=O)C[C@H]2CC[C@@H]3[C@H](COC[C@@H](O)CN3CC3CCOCC3)O2)CC1,4,13
C[C@H](CO)N1C[C@H](C)[C@H](CN(C)S(C)(=O)=O)Oc2c(NC(=O)C3CC3)cccc2C1=O,4,0
COCC#Cc1ccc2c(c1)O[C@@H](CN(C)Cc1cncnc1)[C@H](C)CN([C@@H](C)CO)S2(=O)=O,15,11
CN(C)C(=O)c1ccc(-c2ccc(C3[C@H]4CNC[C@@H]3N4S(=O)(=O)c3ccc(Cl)cc3)cc2)cc1 (stereo not given in full),2,5
C[C@@H]1CN([C@@H](C)CO)C(=O)c2cc(C#CCN(C)C)cnc2O[C@H]1CN(C)C(=O)c1cccc(F)c1,27,12
CC(C)C#Cc1ccc2c(c1)O[C@@H](CN(C)C(=O)Cc1ccccn1)[C@H](C)CN([C@H](C)CO)S2(=O)=O,-5,-8
C[C@H]1CN([C@@H](C)CO)C(=O)Cc2cc(NC(=O)C3CCCCC3)ccc2O[C@@H]1CN(C)C(=O)Nc1ccc2c(c1)OCO2,7,4
C[C@@H]1CN([C@H](C)CO)C(=O)c2cc(NS(=O)(=O)c3ccc(Cl)cc3)ccc2O[C@@H](C)CCCCO[C@H]1CN(C)S(=O)(=O)c1ccccc1,-11,-4

# Continuation.
SMILES,Vaccinia inh,Vaccinia inh Venus
COc1ccc(NC(=O)N(C)C[C@@H]2Oc3ncc(-c4ccc(C#N)cc4)cc3C(=O)N([C@H](C)CO)C[C@H]2C)cc1,9,7
CCCNC(=O)N(C)C[C@H]1Oc2ncc(-c3ccncc3)cc2C(=O)N([C@@H](C)CO)C[C@@H]1C,5,1
COc1ccc2c3c([nH]c2c1)[C@H](CO)N(C(=O)Cc1ccccn1)CC31CCN(Cc2ccccn2)CC1,8,12
CCCNC(=O)N[C@H]1C=C[C@H](CC(=O)NC2CCCCC2)O[C@H]1CO,10,6
N#Cc1cccc(-c2ccc([C@H]3[C@@H](CO)N4CCCCN(Cc5ccccc5F)C[C@@H]34)cc2)c1,-5,2
C[C@H]1CN([C@@H](C)CO)C(=O)Cc2cc(NC(=O)Cc3cn(C)c4ccccc34)ccc2O[C@H]1CN(C)C(=O)Nc1ccccc1,8,9
C[C@@H]1CN([C@@H](C)CO)C(=O)Cc2cc(NC(=O)Cn3cnnn3)ccc2O[C@H]1CN(C)S(=O)(=O)c1ccc(Cl)cc1,9,-1
O=C(Nc1ccc(Cl)cc1)N[C@H]1CC[C@H](CCn2cc(Cc3ccccc3)nn2)O[C@H]1CO,-3,-6
C[C@@H]1CCCCO[C@H](CN(C)C(=O)NC2CCCCC2)[C@H](C)CN([C@@H](C)CO)C(=O)c2cc(NS(=O)(=O)c3cccs3)ccc2O1,-5,-9
Cc1ccc(-c2cnc3c(c2)C(=O)N([C@@H](C)CO)C[C@H](C)[C@@H](CN(C)C(=O)Cc2ccccc2)O3)cc1,?,.
C[C@@H]1CN([C@H](C)CO)C(=O)c2cc(-c3ccc(C#N)cc3)cnc2O[C@H]1CN(C)Cc1ccncc1,9,11
C[C@H](CO)N1C[C@H](C)[C@@H](CN(C)CC2CC2)OCCCC[C@H](C)Oc2ccc(NC(=O)c3ccccc3)cc2C1=O,-7,-4
COc1ccc(-c2ccc([C@H]3[C@H]4CN(C(=O)C5CCOCC5)CC(=O)N4[C@H]3CO)cc2)cc1,-16,-12
CCC(=O)N(C)C[C@@H]1Oc2cc(-c3ccccc3OC)ccc2S(=O)(=O)N([C@H](C)CO)C[C@H]1C,-13,-9
C[C@H](O)C#Cc1cnc2c(c1)C(=O)N([C@@H](C)CO)C[C@H](C)[C@H](CN(C)CC1CCCCC1)O2,18,7
Cc1ccc(S(=O)(=O)N(C)C[C@H]2Oc3ccc(NC(=O)CCCCCC(=O)Nc4ccccc4N)cc3C(=O)N([C@H](C)CO)C[C@H]2C)cc1,-9,-11
C[C@H](CO)N1C[C@H](C)[C@@H](CN(C)Cc2ccncc2)Oc2ncc(Br)cc2C1=O,15,2
